# Mtb H37Rv: M. tuberculosis H37Rv growth inhibitors, H37Rv strain (AID 1626) | M. tuberculosis H37Rv growth inhibition; higher % means a stronger effect | 0.95% of 220,000 active | inhibition, % at 10 µM; hits with a dose series show IC50 in µM;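 active = confirmed in a dose series; inconclusive = inhibition above 80% but not taken into the dose series; inactive = below 80% or under 30% at every dose of the series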;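 note: bacteria incubated seven days before Alamar blue readout; 0% = bacteria only wells and 100% = bacteria with antibiotic wells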
# RecA intein inh: Mtb RecA intein splicing inhibitors, primary screen, biochemical, fluorescence, HTS; Protein RecA (Mycobacterium tuberculosis (strain ATCC 25618 / H37Rv)), P9WHJ3; inhibition, %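 (about 9 µM by stock and volumes)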; cell-free RecA intein splicing; AID 2221, 2009; 0.75% of 290,000 active; in the data active = inhibition above about 30%; inconclusive = no clear call, values can overlap the other calls;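 note: 0% = vehicle wells and 100% = reference inhibitor control wells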
# Target sequence (P9WHJ3 whole entry, looked up): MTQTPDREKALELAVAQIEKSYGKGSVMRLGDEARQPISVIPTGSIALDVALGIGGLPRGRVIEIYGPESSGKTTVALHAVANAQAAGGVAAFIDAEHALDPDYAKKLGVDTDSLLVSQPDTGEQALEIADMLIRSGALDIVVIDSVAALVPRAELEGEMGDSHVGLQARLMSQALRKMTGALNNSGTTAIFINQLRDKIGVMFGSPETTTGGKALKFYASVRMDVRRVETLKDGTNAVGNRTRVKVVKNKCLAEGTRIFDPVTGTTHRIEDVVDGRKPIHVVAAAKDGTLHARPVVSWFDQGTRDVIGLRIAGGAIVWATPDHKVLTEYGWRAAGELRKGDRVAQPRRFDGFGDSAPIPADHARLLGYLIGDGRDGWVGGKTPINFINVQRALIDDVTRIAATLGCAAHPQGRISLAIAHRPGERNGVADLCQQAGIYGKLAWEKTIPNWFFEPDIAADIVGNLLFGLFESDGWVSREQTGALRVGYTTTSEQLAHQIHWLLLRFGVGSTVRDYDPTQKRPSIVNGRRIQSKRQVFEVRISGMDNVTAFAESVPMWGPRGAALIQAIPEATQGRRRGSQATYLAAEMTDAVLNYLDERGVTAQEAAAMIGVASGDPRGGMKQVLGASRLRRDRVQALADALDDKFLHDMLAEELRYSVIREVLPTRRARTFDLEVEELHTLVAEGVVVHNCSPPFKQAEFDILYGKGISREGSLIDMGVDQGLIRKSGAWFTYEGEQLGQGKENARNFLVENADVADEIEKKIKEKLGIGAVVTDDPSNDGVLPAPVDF
# Mtb betalactam: beta-lactam sensitization of Mtb H37Rv, H37Rv | M. tuberculosis H37Rv growth with meropenem, percent inhibition; hits of this screen are not shown here | inhibition, % at 25 µM | 0.27% of 330,000 active | AID 434955, 2010;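 active = about 74% or more and at least 40 points above the plate without the antibiotic, then above 30% in a dose series; inconclusive = first-round hits that could not be retested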;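 note: growth measured after seven days incubation then overnight dye step; 0% = bacteria only wells and 100% = bacteria with antibiotic; twin plates without the antibiotic show which effects depend on it; some results filed as inactive read as strong as hits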
# Arbovirus anti: antivirals against arbovirus infection, primary screen, cell-based, full library, 10K replicate subset; 0.37% of 200,000 active; inhibition, % at 10 µM; arbovirus infection cell-based antiviral screen;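 active = inhibition from about 30%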;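 note: bluetongue infection of BSR cells; cell survival read as ATP light after 72 h; 0% = infected wells without compound and 100% = uninfected wells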
# YopH inh: YopH tyrosine phosphatase inhibitors, primary screen, biochemical, fluorescence Ex485/Em525; YopH tyrosine phosphatase [Yersinia enterocolitica]; inhibition, %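 (about 10 µM by stock and volumes)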; 0.16% of 140,000 active; AID 898, 2007;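 active = inhibition of 50% or more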;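 note: controls were vehicle for no effect and minimum signal wells for full effect; inactives centre near -20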
# Arbovirus anti repeat: second read-out of Arbovirus anti, no call of its own (marks repeat the call); inhibition, %; measured here: 10K subset replicate screen; many hits read low in the repeat;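 first of two repeat runs on a subset; 0% = infected and 100% = uninfected wells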
# * hit, by the source's call; ? = inconclusive; . = not tested or not shown. Not all compounds are listed; the hit share may differ from the screen's.
SMILES,Mtb H37Rv,RecA intein inh,Mtb betalactam,Arbovirus anti,YopH inh,others
O=C(/C=C/c1cccc2ccccc12)c1ccncc1,8.2µM*,6.2,100,-35,-35,
COc1cc(C2c3c(-c4ccccc4O)n[nH]c3C(=O)N2Cc2ccco2)cc(OC)c1OC (centres undefined),-5%,-6.4,0,.,.,
O=C(CCCl)N1CCN(c2nc(-c3ccccc3)cs2)CC1,.,3.9,-10,.,.,
CC1(C)CC(=O)/C(=N/Nc2ccc(Cl)cc2)CO1,?,-5.0,91,.,.,
CS(=O)(=O)Nc1ccc(C2=NN(C(=O)c3ccccc3)C(c3cccs3)C2)cc1 (centres undefined),.,5.3,46,.,.,
CC(=O)Nc1nnc(SCC(=O)Nc2nc(C)cs2)s1,.,1.3,-6,.,.,
COc1ccc(NC(=O)c2nc[nH]c2C(=O)NCC(=O)OC(C)(C)C)cc1,13%,-5.1,65,.,.,
CCOC(=O)C1CCCN(C(=O)c2cc3ccc(OC)cc3[nH]2)C1 (centres undefined),.,-0.5,2,.,.,
N#CC1=C(SCC(=O)Nc2cccc3cccnc23)NC(=O)C(C#N)C12CCCCC2 (centres undefined),-4%,3.9,0,11,3,
Cc1c(CCC(=O)NCC(=O)NCC(=O)O)c(=O)oc2cc3oc4c(c3cc12)CCCC4,.,-0.3,-3,.,.,
O=C(Nc1ccccc1)C1=C[C@H](C2CC2)C[C@H](OCCCCO)O1,-11%,1.1,25,5,.,
C#CCOCCOCCOCCNc1nc(N2CCN(C(=O)[C@H](CCC(=O)O)n3cc(C(N)Cc4ccc(O)cc4)nn3)CC2)nc(N2CCN(C(=O)[C@H](Cc3ccc(O)cc3)n3cc(C(N)[C@H](C)CC)nn3)CC2)n1 (some centres undefined),-13%,1.1,.,.,.,
O=C(Nc1ncn[nH]1)c1ccc(Cl)c(S(=O)(=O)N2CCCCCC2)c1,-8%,0.0,5,-19,-16,
CC(=O)c1ccc(OCc2cc(C(=O)N3CCN(C4CCCC4)C(=O)C3)no2)cc1,.,-7.6,-2,.,.,
CCOc1ccc(NC(=O)CN(c2cccc(C(F)(F)F)c2)S(C)(=O)=O)cc1,2%,3.1,-7,3,2,
CCOc1ccc(S(=O)(=O)Nc2ccccc2C(=O)N/N=C/c2c(OC)ccc3ccccc23)cc1,0%,0.1,4,-6,-34,
O=S(=O)(c1ccccc1)N1CCC(n2nnc3cc(F)ccc32)CC1,19%,-0.2,-5,5,-19,
Oc1ccccc1/C=N/N1CCN(c2ccccn2)CC1,-5%,0.2,-6,.,.,
CC(=O)Nc1ccc(CN2CCN(c3cccc(C(F)(F)F)c3)CC2)cc1,-8%,2.5,-8,-18,-31,
CCN(CC)c1ccc(C=C2C(=O)NC(=S)NC2=O)cc1,-1%,-2.8,-1,.,.,
COc1ccccc1-c1cc(-c2ccc(C)cc2)nc(SCc2nnc(-c3ccccc3)o2)c1C#N,4%,2.2,4,6,-2,
CSc1nn2c(C)c(C)c(C)nc2c1C#N,8%,-0.7,3,14,.,
Cc1cc(C=C(C#N)C#N)ccc1N1CCCC1,2%,2.9,4,-2,.,
Cc1ccccc1/C(N)=N/OC(=O)c1cccs1,8%,3.1,7,5,-23,
COc1ccc(-c2cc3ncc(C(C)=O)c(C)n3n2)cc1,-3%,6.7,-1,-2,.,
CO/N=C(/CNC(=O)c1ccc(F)cc1)c1ccc(Cl)cc1,.,0.7,-2,3,-38,
COC(=O)Cc1c(O)ccn(C2CC2)c1=O,-1%,0.0,1,4,.,
O=C(CNC(=O)[C@@H]1Cc2ccccc2CN1)Nc1ccc2c(c1)OCO2,.,14,-3,.,.,
Cc1nc([N+](=O)[O-])cn1CC(=O)NCCCO,9%,-0.6,-9,6,-12,
Cc1ccc2c(CC(=O)Nc3sccc3C(N)=O)coc2c1,.,-1.7,1,8,-49,
CCCNC(=O)c1ccc(CNc2c(N3CCC(C(=O)OCC)CC3)c(=O)c2=O)cc1,5%,-1.2,-6,0,-37,
COCCN(C(=O)COC(=O)/C=C/c1ccco1)c1c(N)n(Cc2ccccc2)c(=O)[nH]c1=O,.,1.9,2,.,.,
O=C(O)Cc1ccc(NC(=O)c2ccc3c(c2)C(=O)N(CC2CCCO2)C3=O)cc1 (centres undefined),.,-4.3,-5,.,.,
CCC(C)C(NC(N)=O)C(=O)NC1CCC(C)CC1 (centres undefined),-3%,0.8,2,7,.,
Cc1ccc(-c2ccc(CCC(=O)O)n2NC(=O)c2cccs2)cc1,-13%,-0.3,-5,1,-34,
CN(C)/N=C/c1ccc(N2CCOCC2)cc1,3%,-5.9,15,2,.,

# Structural class, the compounds so far containing a CF3 group
SMILES,Mtb H37Rv,RecA intein inh,Mtb betalactam,Arbovirus anti,YopH inh,others
CCOc1ccc(NC(=O)CN(c2cccc(C(F)(F)F)c2)S(C)(=O)=O)cc1,2%,3.1,-7,3,2,
CC(=O)Nc1ccc(CN2CCN(c3cccc(C(F)(F)F)c3)CC2)cc1,-8%,2.5,-8,-18,-31,

# Remaining list, next part
SMILES,Mtb H37Rv,RecA intein inh,Mtb betalactam,Arbovirus anti,YopH inh,others
O=C(COC(=O)c1ccc(Cl)c(S(=O)(=O)N2CCCC2)c1)NC1CCCCC1,4%,-4.2,4,12,.,
CCN1CCN(C(=O)c2ccc(Cl)c(S(=O)(=O)N3CCOCC3)c2)CC1,-2%,-2.6,-5,6,-12,
Cc1ccc(NC(=O)C23CCC(C)(C(=O)[C@H]2Br)C3(C)C)cc1 (some centres undefined),2%,-1.1,1,.,.,
Cc1cc(C)n2nc(SCC(=O)N3CCc4ccccc43)nc2n1,-10%,-0.6,-6,-5,-23,
COCCNC(=O)C(=O)NCC1OCCN1S(=O)(=O)c1ccc(F)cc1 (centres undefined),.,-0.1,-10,.,.,
CC(OC(=O)C1=COCCO1)C(=O)Nc1cccc(S(=O)(=O)N2CCOCC2)c1 (centres undefined),-6%,2.6,3,.,.,
CCCCCC(=O)N1CC2(CC(c3cccc(NC(=O)CC)c3)=NO2)C[C@H]1C(N)=O (some centres undefined),0%,-0.4,-10,.,.,
Cc1cc(-c2ccccc2)c2c(n1)sc1c(O)cc(=O)[nH]c12,-9%,-4.8,-10,.,.,
CSCCCN1CC[C@@H](N2CCN(c3ccccc3F)CC2)[C@H](O)C1,.,-0.8,7,.,.,
O=C1OC(OC2CCCCC2)(c2ccccc2)c2ccccc21 (centres undefined),-7%,17,8,-4,-44,
COc1ccc(OC)c(/C=C/C(=O)OCC(=O)c2c(N)n(C)c(=O)n(C)c2=O)c1,-12%,-2.9,-13,8,.,
Cc1ccc(S(=O)(=O)NC(=O)c2cc(C)n(C3CC3)c2C)cc1,-11%,2.0,-2,5,.,
CCN1CCN(C(=O)CCc2ccc(S(=O)(=O)NCCc3ccccc3)cc2)CC1,10%,0.9,-3,-10,-18,
CN1CCCN(CC(O)COCc2cccs2)CC1 (centres undefined),-5%,-0.7,-21,7,11,
O=c1[nH]cccc1-c1nc2ccccc2n1Cc1cccc(Cl)c1,.,-1.1,-1,.,.,
CCOC(=O)c1cc2c(C)n(-c3ccc(N(C)C)cc3)c(C)c2cc(C(=O)OCC)c1=O,-7%,-5.2,0,-4,-29,
O=C(CSc1nnc2c(n1)[nH]c1ccccc12)NC1CCCCC1,.,-4.5,1,.,.,
O=c1c2ccccc2c(-c2ccccc2)nn1-c1cc(Cl)ccc1[N+](=O)[O-],12%,11,41,-6,-38,
COc1ccc(-n2c(C)cc(C3=NNC(=NC4CC4)SC3)c2C)cc1,8%,.,.,-12,.,
Cc1c(C(=O)Nc2ccc3c(c2)OCCO3)cnn1C,.,-5.0,-2,.,.,
Cc1ccc(NC(=S)NNC(=O)c2ccccc2O)c(C)c1,-1%,5.1,2,-12,.,
Cc1ccc(S(=O)(=O)NCC(=O)OCc2ccccc2)cc1,7%,1.2,-4,2,.,
Cn1nnnc1SCC(=O)c1cccs1,-4%,0.6,0,-1,3,Arbovirus anti repeat=-4
Cc1cccc(Nc2ccccc2C(=O)OCC(=O)NCc2ccco2)c1C,-2%,2.7,2,-4,-36,
CC(C)N(Cc1cn(C)nc1-c1cccc(Cl)c1)CC1CCC(=O)N1 (centres undefined),-13%,1.0,-7,1,.,
CCCCCCNC(=O)CCNC(=O)c1cc(OC)c(OC)c(OC)c1,11%,5.9,-8,-8,-38,
CCN(C(=O)c1ccc(S(=O)(=O)N2CCCC2)cc1)C1CCS(=O)(=O)C1 (centres undefined),.,-2.1,-8,.,.,
O=C(CSC1=NS(=O)(=O)c2ccccc2N1)NCCc1ccccc1,.,0.0,-9,.,.,
CN(C)S(=O)(=O)c1cccc(NC(=O)c2cc(-c3cccs3)nn2-c2cccc(Cl)c2)c1,16%,1.8,1,-12,-31,
O=C1c2cc(CO)cc(O)c2C(=O)c2c(O[C@@H]3OC(CO)[C@@H](O)[C@@H](O)[C@@H]3O)cccc21 (some centres undefined),-7%,3.4,-5,.,.,
CCN(CC)CCN(C(=O)c1ccc2c(c1)OCCO2)c1nc2c(Cl)cccc2s1,.,0.3,3,.,.,
CCN(C1CCS(=O)(=O)C1)S(=O)(=O)c1cccs1 (centres undefined),-1%,2.9,0,2,-20,
COCCN1CCn2c(nc3cc(NC(=O)NC4CCCCC4)ccc32)C1,7%,.,4,-5,-46,
Cc1nn(C(C)C(=O)NC2CC2)c(=O)c2nn(-c3ccccc3)c(C)c12 (centres undefined),.,0.1,-2,.,.,
CCn1c(/C=N/c2nc3ccccc3n2C)nc2ccccc21,-2%,-1.2,9,-5,-31,
O=C(CN1C(=O)CCSc2ccc(S(=O)(=O)N3CCOCC3)cc21)Nc1cccc(F)c1,.,1.1,-10,.,.,
O=C(NCc1ccccn1)C1CCC(=O)N1C1CCCCC1 (centres undefined),-4%,0.9,0,9,-52,
COC(=O)C1=C(N)Oc2cc(C)[nH]c(=O)c2C1c1cc(OC)c(OC)c(OC)c1 (centres undefined),-1%,-1.9,-4,-6,-36,
Cc1ccc(C(C(=O)NC2CCCCC2)N(Cc2cccnc2)C(=O)C2COc3ccccc3O2)o1 (centres undefined),-7%,.,-7,4,-25,
O=C1NC(=O)C(=Cc2cccc(OCCOc3ccccc3)c2)C(=O)N1,.,-2.6,6,.,.,
COCCNC(=O)CCc1nnc2ccc(N3CCC(C)CC3)nn12,.,-1.2,5,.,.,
COc1ccc(NC(=O)C2CCCCN2N)cc1OC (centres undefined),-6%,-3.6,-7,-2,-7,
CCOc1ccc(C(=O)NCc2ccc3c(c2)OCO3)cc1,.,0.2,3,.,.,
S=c1[nH]nc(Cc2ccc(Br)cc2)n1/N=C/c1ccc(Cl)cc1,4%,.,0,-7,.,
CC(/C=C/c1ccccc1)=N\NC(=O)c1cc(C)nc2ccccc12,5%,0.6,5,.,.,
CCOC(=O)CN1CC23C=CC(O2)C(C(=O)Nc2ccc(OCC)cc2)C3C1=O (centres undefined),-1%,-0.2,-2,9,-32,Arbovirus anti repeat=5
Cc1cccc(C(=O)Nc2c3c(nn2C(C)(C)C)CS(=O)(=O)C3)c1,.,0.8,0,.,.,

# Entries above that have an aryl methoxy group, in the order listed:
SMILES,Mtb H37Rv,RecA intein inh,Mtb betalactam,Arbovirus anti,YopH inh,others
COc1cc(C2c3c(-c4ccccc4O)n[nH]c3C(=O)N2Cc2ccco2)cc(OC)c1OC (centres undefined),-5%,-6.4,0,.,.,
COc1ccc(NC(=O)c2nc[nH]c2C(=O)NCC(=O)OC(C)(C)C)cc1,13%,-5.1,65,.,.,
CCOC(=O)C1CCCN(C(=O)c2cc3ccc(OC)cc3[nH]2)C1 (centres undefined),.,-0.5,2,.,.,
CCOc1ccc(S(=O)(=O)Nc2ccccc2C(=O)N/N=C/c2c(OC)ccc3ccccc23)cc1,0%,0.1,4,-6,-34,
COc1ccccc1-c1cc(-c2ccc(C)cc2)nc(SCc2nnc(-c3ccccc3)o2)c1C#N,4%,2.2,4,6,-2,
COc1ccc(-c2cc3ncc(C(C)=O)c(C)n3n2)cc1,-3%,6.7,-1,-2,.,
COc1ccc(OC)c(/C=C/C(=O)OCC(=O)c2c(N)n(C)c(=O)n(C)c2=O)c1,-12%,-2.9,-13,8,.,
COc1ccc(-n2c(C)cc(C3=NNC(=NC4CC4)SC3)c2C)cc1,8%,.,.,-12,.,
CCCCCCNC(=O)CCNC(=O)c1cc(OC)c(OC)c(OC)c1,11%,5.9,-8,-8,-38,
COC(=O)C1=C(N)Oc2cc(C)[nH]c(=O)c2C1c1cc(OC)c(OC)c(OC)c1 (centres undefined),-1%,-1.9,-4,-6,-36,
COc1ccc(NC(=O)C2CCCCN2N)cc1OC (centres undefined),-6%,-3.6,-7,-2,-7,

# Source: PubChem (several laboratories)
